CapD inh: inhibitors of Bacillus anthracis CapD enzyme. z-score (no concentration beside the values). purified CapD enzyme, fluorescence intensity read-out; hits give low values; some hits fall short of the stated cut. AID 492967. 140,000 tested, 0.23% active;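 active means z-score under -4 in either of two replicates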;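 further: stock transfer was 100 nL into about 40 µL; score is relative to mean and spread of the plate; one replicate is shown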
AID504770: growth inhibitors of E. coli YBA685 in a screen for V. cholerae RctB (chromosome II replication) inhibitors; E. coli YBA685 rctB-dependent plasmid, OD600 growth, 3 h; hits give low values; AID 504770; 130,000 tested, 0.27% active; z-score (test concentration not listed);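 active means z-score under -2 on both plates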;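 further: wells of about 30 µL received 100 nL stock; score is relative to mean and SD of the test wells; the first replicate is given; strong numbers were not always called active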
* hit, by the source's call; nt = not tested or not shown.

SMILES	CapD inh	AID504770
CN1C(=O)c2ccc(NC(=O)c3ccc4ncsc4c3)cc2C1=O	nt	1.9
COP(=O)(OC)C(Nc1cccc2ccccc12)c1ccc(Br)cc1 (centres undefined)	50	nt
COc1ccccc1N1CC(C(=O)OC(C)C(=O)N2CCCc3ccccc32)CC1=O (centres undefined)	nt	-0.75
Cc1ccc(CNC(=O)COC(=O)c2ccccc2NCCO)cc1	nt	0.4
Cc1[nH]c(C)c(S(=O)(=O)NC2CCCCCC2)c1C(=O)N1CCCC1	0.81	-0.9
CC(=O)OC1OCCOC1OC(C)=O (centres undefined)	nt	-0.5
O=[N+]([O-])c1ccc2c(c1)S(=O)(=O)C=C2	-0.16	nt
COCC(C)N1CC(C(=O)Nc2nnc(CCc3ccccc3)s2)CC1=O (centres undefined)	nt	0.4
CC(NC(=O)c1ccc(C(C)(C)C)cc1)c1ccncc1 (centres undefined)	0.55	0.2
N=c1c(C(N)=S)cnc2ccccn12	-3.6	-1.1
Cc1ccccc1-n1c(=O)c2ccccc2n2nnnc12	-0.4	-0.85
CCCCN(C)C(=O)c1nc(-c2ccc(C)cc2)n2c1CCCCC2	0.18	-1.3
Cc1ccc(C(=O)CSc2nccc(=O)[nH]2)cc1	nt	1.1
NC(CC(=O)O)c1cccc(O)c1 (centres undefined)	-0.3	1.8
O=c1oc2ccc(NS(=O)(=O)c3ccccc3)cc2s1	-0.59	-0.65
CCOC(CCn1c(SCC(N)=O)nc2c(sc3ccccc32)c1=O)OCC	2.9	-1
CCCn1c(CNC(C)=O)nc2ccccc21	0.34	0.55
COc1cccc(/C=N/N=C/c2cccc(OC)c2O)c1O	-0.06	nt
COc1ccc(C2C(C#N)=C(N)Oc3n[nH]c(C)c32)c(OCc2ccccc2Cl)c1 (centres undefined)	0.055	nt
N#Cc1c(-c2ccccc2)nc(SCC(=O)OC2CCCC2)[nH]c1=O	1.6	-0.8
O=C(c1ccc2c(=O)n(Cc3ccc(Cl)cc3)c(=S)[nH]c2c1)N1CCN(c2ncccn2)CC1	-0.52	nt
CC(C)c1cc(=O)n2c([nH]c3ccccc32)c1C#N	-0.45	1
O=C(Nc1cccc(Cl)c1)C1=CC(=O)N2CCCN=C2S1	43	0.4
CCOC(=O)c1c(C=O)oc2c(C)cc(OC(=O)c3cc(OC)c(OC)c(OC)c3)c(Br)c12	0.23	nt
CC(=O)c1ccc(Sc2ccccn2)c([N+](=O)[O-])c1	-1.2	nt
Cc1oc(-c2ccccc2)[n+]([O-])c1C	-1.7	-0.15
Cc1ccc(N2CCN(C(=O)c3ccc(Br)cc3)CC2)cc1C	-0.07	0.75
Cc1nnc(NC(=O)CSc2nnc(COc3ccc4c(c3)CCCC4)n2C)s1	nt	0.65
c1ccc2c(N3CCN(c4ncnc5ccccc45)CC3)ncnc2c1	-0.25	nt
CN1C(=O)C(Cc2nc3ccccc3c(=O)n2-c2ccccc2)c2ccccc21 (centres undefined)	nt	-0.45
COc1ccccc1-c1coc2cc(OCc3ccc(C)cc3)ccc2c1=O	3.5	-0.3
CCCCCCCOc1ccc(C(=O)Oc2cccc(OC(=O)c3ccc(OCCCCCCC)cc3)c2)cc1	0.21	nt
COC(=O)C1C(=O)c2cc(OC)c(OC)cc2C1c1ccccc1 (centres undefined)	52	0.25
COCCOC(=O)C1=C(C)NC2=C(C(=O)CC(c3ccc(OC)c(OC)c3)C2)C1c1ccccc1F (centres undefined)	21	nt
Cc1cc(C)cc(/C=N/NC(=O)c2ccc([N+](=O)[O-])cc2Cl)c1	0.54	nt
Fc1ccc(COC(CN2CCCCC2)CN2CCCCC2)cc1	nt	-0.35
Nc1nc(CC(=O)NN=C2CCCCCC2)cs1	nt	-0.05
CC(=O)Nc1c(O)nc(SCC(=O)N2CCOCC2)[nH]c1=O	0.35	0.1
COc1ccc(-c2nc(CSCC(=O)N3CCCC3)c(C)o2)cc1	-0.27	-0.1
CCOc1[nH]n(-c2ccc(Cl)cc2)c(=O)c1/C=N/N1CCOCC1	-0.57	nt
COc1ccc(OCCSc2nnc(CCNC(=O)c3ccc(OC)cc3)n2C)cc1	0.11	0.5
CCOC(=O)C1=C(CSc2nnc(-c3ccc(OC)cc3)o2)NC(=O)NC1C (centres undefined)	nt	-0.3
CC(=O)NCCSCc1c(F)cccc1Cl	-1.2	-1.1
O=c1[nH]c(O)c(C=NCc2ccc(Cl)cc2)c(=O)[nH]1	0.77	0.3
CCc1ccc(S(=O)(=O)NCc2cn3ccccc3n2)s1	-0.95	1.6

Copied from the listing for reference:
SMILES	CapD inh	AID504770
O=c1[nH]c(O)c(C=NCc2ccc(Cl)cc2)c(=O)[nH]1	0.77	0.3
CCc1ccc(S(=O)(=O)NCc2cn3ccccc3n2)s1	-0.95	1.6

Remaining list, next part.
SMILES	CapD inh	AID504770
Cc1nnc(COC(=O)c2c3c(nc4ccccc24)CCC(C(C)(C)C)C3)o1 (centres undefined)	nt	1
CCOCc1nnc(NS(=O)(=O)c2ccc(Cl)cc2)s1	nt	-0.85
Cc1sc2nc(CN3CCCCC3)nc(N)c2c1C	nt	2.7
CCNc1ccc(C(=O)OCC)cc1NC(=O)Nc1ccc(F)cc1	nt	0.6
O=S(=O)(NCCN1CCCC1)c1cccc2cccnc12	-0.23	-0.7
COc1ccc(C(=O)c2cnc3ncccn23)cc1	nt	-0.7
CN(C)c1ccc(NC(=S)NC2CCCCC2)cc1	-0.29	-0.95
Nc1nc(SCc2ccccc2)ns1	nt	-0.45
Cc1nc2c(cnn2-c2ccccc2)c(=O)n1-c1ccccc1	nt	-0.05
CC(C)(C)C(=O)/C=C1\Nc2ccccc2SC1(O)CC(=O)C(C)(C)C (centres undefined)	-1.6	-1.5
Cc1cccc(NC(=O)c2sc3nc(C)nc(N4CCOCC4)c3c2C)c1	0.35	nt
CC(O)c1ccc2ccccc2c1 (centres undefined)	-0.12	-1.1
CCOC(=O)c1ccc(C(=S)N2CCCC2)cc1	0.38	0.45
S=C(NCCN1CCOCC1)NNc1c(Cl)cc(Cl)cc1Cl	nt	-1.3
O=C(Nc1ccccc1)Nc1nccs1	nt	-1.3
O=c1ccc(-c2nc3c4c5c(sc4ncn3n2)CCCC5)n[nH]1	nt	0.15
COC(=O)c1sccc1-c1ccc(C=Nc2ccc(Cl)cc2)o1	5.9	1
CCCOC1(C(F)(F)F)NC(=O)N(Cc2ccccn2)C1=O (centres undefined)	-1.3	2
CCOc1ccc(-n2c(=O)/c(=C\c3ccco3)s/c2=C(/C#N)C(=O)C(C)(C)C)cc1	nt	0.05
O=C(NC(=O)C(F)(F)F)Nc1nncs1	nt	-1
CC(=O)Nc1ccccc1OCC(=O)NCC(F)(F)F	nt	0
Cc1cccc(C)c1NC(=O)C(c1ccccc1)N(C)C(=O)c1cnccn1 (centres undefined)	-0.38	-0.25
FC(F)(F)c1nc(NCCc2ccccc2)nc2c1CCCCC2	-0.03	-0.55
Cc1cc(-c2ccc(S(=O)(=O)Nc3ccccc3)s2)on1	-1.8	1.3
O=C(/C=C\c1ccc2c(c1)OCO2)OCn1nnc2ccccc2c1=O	0.44	-0.75
CC1=C(C(N)=O)C(c2ccccc2F)n2ncnc2N1 (centres undefined)	-0.75	1.7
S=C1N2CCN=C2SC2=NCCN12	0.13	-0.35
COc1cccc(OC)c1C(=O)N1CCN(C(=O)COc2ccc(Cl)cc2)CC1	-0.27	-0.35
Cn1c(=O)c2c(nc(NCc3ccco3)n2Cc2ccc(Br)cc2)n(C)c1=O	-0.1	nt
COc1cc(N=Cc2cccs2)c(OC)cc1Cl	0.73	1.7
Cc1nnc2c3ccccc3nc(Nc3ccc(N4CCOCC4)cc3)n12	10	0.7
O=C(Nc1ccc(CSc2ccccc2)cc1)c1cc(Cl)cc(Cl)c1	0.085	nt
O=C(CCS(=O)(=O)c1ccc(Br)s1)NC(c1ccccc1)c1ccccc1	0.41	-0.2
COc1cccc(NC(=O)C2C3C=CC4(O3)C2C(=O)N(Cc2ccc3c(c2)OCO3)C4C(=O)NC2CCCCC2C)c1 (centres undefined)	0.41	0.65
COc1cc(/C=C2\NC(=S)NC2=O)ccc1Oc1ccc([N+](=O)[O-])cc1[N+](=O)[O-]	0.94	nt
CC(C)N1C(=O)/C(=C/c2cccc(Br)c2)SC1=S	0.46	-0.45
Cc1nc2ccc(S(=O)(=O)N(CC(=O)N3CCN(C)CC3)Cc3ccccc3)cc2s1	0.095	-0.05
O=C(CSc1nnc(CN2C(=O)c3cccc4cccc(c34)C2=O)n1-c1ccccc1)NCc1ccco1	4.2	nt
Cn1nc(Cl)c2ccccc2c1=O	-0.55	nt
Cc1ccc(NC(=O)C2CC(=O)N(CCc3ccc(Cl)cc3)C2)cc1 (centres undefined)	-0.22	-0.15
CCCCNC(=O)CSc1nc2ccccc2n1S(=O)(=O)c1ccc(C)cc1	-0.2	nt
CCc1cc(-c2[nH]ncc2-c2nc(C)cs2)c(O)cc1OC(C)C(=O)NN (centres undefined)	6.4	-0.55
O=C(Cn1nc(-c2cccc(-n3cccc3)c2)oc1=O)N1CCCCC1	nt	-0.15
COc1ccccc1C(=O)N(C(C)C)C(C)C	-0.03	-0.2
CC1=Nc2cccc3cccc(c23)N1	-1.5	-0.8

Arranged by molecular weight (ascending): part of the list above.
SMILES	CapD inh	AID504770
CC1=Nc2cccc3cccc(c23)N1	-1.5	-0.8
Cn1nc(Cl)c2ccccc2c1=O	-0.55	nt
S=C1N2CCN=C2SC2=NCCN12	0.13	-0.35
COc1ccccc1C(=O)N(C(C)C)C(C)C	-0.03	-0.2
CC1=C(C(N)=O)C(c2ccccc2F)n2ncnc2N1 (centres undefined)	-0.75	1.7
COc1cc(N=Cc2cccs2)c(OC)cc1Cl	0.73	1.7
CC(C)N1C(=O)/C(=C/c2cccc(Br)c2)SC1=S	0.46	-0.45
O=C(/C=C\c1ccc2c(c1)OCO2)OCn1nnc2ccccc2c1=O	0.44	-0.75
O=C(Cn1nc(-c2cccc(-n3cccc3)c2)oc1=O)N1CCCCC1	nt	-0.15
Cc1ccc(NC(=O)C2CC(=O)N(CCc3ccc(Cl)cc3)C2)cc1 (centres undefined)	-0.22	-0.15
CCc1cc(-c2[nH]ncc2-c2nc(C)cs2)c(O)cc1OC(C)C(=O)NN (centres undefined)	6.4	-0.55
O=C(Nc1ccc(CSc2ccccc2)cc1)c1cc(Cl)cc(Cl)c1	0.085	nt
COc1cc(/C=C2\NC(=S)NC2=O)ccc1Oc1ccc([N+](=O)[O-])cc1[N+](=O)[O-]	0.94	nt
CCCCNC(=O)CSc1nc2ccccc2n1S(=O)(=O)c1ccc(C)cc1	-0.2	nt
COc1cccc(OC)c1C(=O)N1CCN(C(=O)COc2ccc(Cl)cc2)CC1	-0.27	-0.35
Cc1nc2ccc(S(=O)(=O)N(CC(=O)N3CCN(C)CC3)Cc3ccccc3)cc2s1	0.095	-0.05
O=C(CCS(=O)(=O)c1ccc(Br)s1)NC(c1ccccc1)c1ccccc1	0.41	-0.2
O=C(CSc1nnc(CN2C(=O)c3cccc4cccc(c34)C2=O)n1-c1ccccc1)NCc1ccco1	4.2	nt

Later entries
SMILES	CapD inh	AID504770
CC(C)C(=O)Nc1cccc(-c2nc3ncccc3o2)c1	-1	-0.95
Cc1ccc(S(=O)(=O)c2ncsc2Cl)cc1	-0.26	1.1
O=C(Nc1cccc2ccccc12)c1ccc(C(F)(F)F)cc1	5.4	0.1
CCOC(=O)c1ccc(NC(=O)CN2C(=O)/C(=C\c3ccccc3)SC2=S)cc1	0.26	nt
O=C(Cn1cnc2ccccc21)Nc1ccccc1	0.08	-1.2
Cc1ccccc1C(=O)Nc1nccs1	-0.12	nt
COc1cc(/C=C2\SC(=S)N(C3CCS(=O)(=O)C3)C2=O)cc(Br)c1O (centres undefined)	nt	-1.6
CCOC(=O)c1c(-c2ccccc2)oc2c1cc(OC(=O)c1cccc(OC)c1)c1ccccc12	-0.49	nt
CCSCCOC(=O)C1=C(C)NC2=C(C(=O)CC(c3ccc(OC)cc3)C2)C1c1ccc(F)cc1 (centres undefined)	49	nt
CN(C)C(CNC(=O)Cc1cccc(C(F)(F)F)c1)c1ccco1 (centres undefined)	nt	-0.1
COc1cc2ccccc2cc1C(=O)OCC(=O)c1ccc(Cl)cc1	0.93	-1.2
CCCCn1c(C)c(CC(Cl)(Cl)Cl)c2c1CC(C)(C)CC2=O	-0.12	nt
Cc1ccc2cccc(I)c2n1	0.08	-2.5*
O=C(Cn1cc2c(n1)CCCCC2)NCCCN1CCCC1=O	-0.44	-0.6
COc1cccc2c1Oc1ncccc1N(C(=O)CCC(=O)NC1CCCCC1)C2	0.32	-0.8
C[S+](C)c1c(-c2ccccc2)nc2ccccn12	19	-0.8
N#CCC(=O)Nc1ccc(F)cc1F	-0.015	0.4
Cc1sc2nc(SCC(=O)NC3CCCCC3)nc(N)c2c1C	-0.35	-0.45
Cn1c2c(cc(C#N)c1=O)COC(C)(C)C2	68	1.2
CN1/C(=C\C(=O)COC(=O)c2cccc(S(=O)(=O)N3CCOCC3)c2)C(C)(C)c2ccccc21	nt	3.4
CC(=O)Oc1ccc(/C=C2N=C(/C=C/c3ccc(Cl)cc3Cl)OC\2=O)c(OC(C)=O)c1	-3.3	nt
CCC1(C)NC(C(=O)O)Cc2c1[nH]c1ccccc21 (centres undefined)	nt	-0.35
O=C(NCC1CCCO1)c1cc(-c2cccs2)nc2ccccc12 (centres undefined)	79	-0.45
CN(C)S(=O)(=O)c1ccc(Oc2ccc(S(=O)(=O)N(C)C)cc2)cc1	0.11	nt
Cn1c(=O)c2[nH]c(SCC(=O)c3ccccc3OC(F)F)nc2n(C)c1=O	1.1	nt
CSC1=NC(=Nc2cccc(C)c2)C2(CCCCC2)N1c1ccc(I)cc1	-0.22	nt
CCC(C)SCc1nc2ccccc2[nH]1 (centres undefined)	nt	0.7
Cc1oc(C(C)(C)C)cc1-c1cc(N)n(-c2ccc(S(N)(=O)=O)cc2)n1	10	0.35
CC(C)(C)c1cc2ncnc(N3CCN(c4ncnc5cc(C(C)(C)C)sc45)CC3)c2s1	0.21	nt
COc1cccc(NC(=O)c2sc3ncnc(N4CCc5ccccc5C4)c3c2C)c1	-1.3	0.25
N#CC(c1c[nH]c2ccccc12)N1CCCCCC1 (centres undefined)	0.47	0.9
N=c1c2c3c(sc2ncn1CCCn1ccnc1)CCCC3	-0.73	-0.9

Bioassay records: PubChem, ICCB-Longwood Screening Facility, Harvard Medical School
